Assay outcomes from PubChem BioAssay.
Sfp inh – inhibitors of Bacillus subtilis Sfp phosphopantetheinyl transferase; Q9F4F7; Biochemical Sfp PPTase activity, qHTS; Potency, µM, for the others: max response, negative = inhibition, hits mostly inhibitors; actives 3.5% (n = 310,000); active means well fitted inhibition curve with a large enough effect; inconclusive means small, poorly fitted or top-dose-only effect, or another doubt; inactive means no such curve, though single readings can be large or run the other way;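 further: the enzyme is Sfp with the accession as filed and its product quenches rhodamine fluorescence; potency means the concentration at half of the fitted maximal effect; 0% = enzyme reaction without inhibitor and -100% = no enzyme wells; top concentration of the series not given in the record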
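With Hepes-Na pH 7.6 buffer containing 10 mM MgCl2, Sfp (15 nM) modified BHQ-2-YbbR (12.5 uM) using rhodamine-CoA (5 uM). Two reads 30 minutes apart at 525/598 nm yielded each well's rate.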
Menin-MLL FL inh – menin-MLL binding inhibition, fluorescein peptide | FP activity change, % at 61.4 µM | 290,000 tested, under 10 active | Fluorescence polarization, fluorescein-MLL peptide displacement from menin; inconclusive = falling polarisation curve, or a change in total fluorescence; inactive = total fluorescence flat and polarisation flat or rising; no compound was filed as active; the % refers to the polarisation; negative = inhibition;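 further: % of control where 0% means no effect; inhibitors lower the polarisation; unlabelled MLL peptide was the positive control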
TRPML1 ag – human mucolipin-1 channel agonism | activation, % (test concentration not listed) | TRPML1-expressing cells, Ca2+ dye fluorescence, FDSS; host cell line not named in the record; reference of the full effect not given here | Q9GZU1 | actives 0.12% (n = 410,000); in the data active = activation above about 50%; inconclusive = about 30% to 50%; inactive = below about 30%; further: 0% is about no effect; the text of the record puts the active cut at 80%
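In this qHTS format, compounds were pin-transferred onto Ca8-dye-loaded TRPML1-DL cells induced with Tet overnight, and intracellular Ca2+ fluorescence was recorded kinetically for 110 s after a 10 s baseline. A subsequent 4uM final 54-4 (EC80) addition followed by a second 110 s read served as the antagonist phase.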
PINK1 modulator – modulators of PINK1 expression | PINK1 immunofluorescence, high-content cytometry, 24 h | Potency, µM (highest dose often 76.6 µM), without a hit: at the highest dose activation (PINK1 increase), actives largely listed as activators | actives 0.2% (n = 410,000); active = well fitted activation curve with a large enough effect; inconclusive = small, poorly fitted or top-dose-only effect; inactive = flat fitted curve, though single readings scatter; cell line not stated here;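 further: potency means the concentration at half of the fitted maximal effect; % of control where 0% means no effect; nearly all actives have a fitted effect of over 65% in size; a mitochondrial uncoupler was the plate control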
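Readout is PINK1 immunofluorescence, quantified alongside mitochondrial, cell and nuclear markers by laser-scanning microplate cytometry. Cells from a stable line were exposed to compound titrations (5 concentrations) for 24 hours, with CCCP controls.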
TRPML1 blocker – human mucolipin-1 channel inhibition. TRPML1-inducible cells, Ca2+ dye fluorescence, FDSS; active compounds read low; inhibition of EC80 agonist-evoked calcium signal. Q9GZU1. actives 0.02% (n = 390,000). activity change, negative = inhibition, % (concentration not given with the values); in the data active means activity change below about -50%; inconclusive means about -30% to -50%; inactive means above about -30%;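 further: stimulus is agonist 54-4 at its EC80 concentration; on the % scale 0 is the no-effect control and ±100 the full control effect; the text of the record puts the active cut at -80%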
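Tet-induced TRPML1-DL cells loaded with Ca8 no-wash calcium dye were read kinetically on FDSS. Compound addition was followed by EC80 agonist 54-4 (4 uM final); inhibition was read over 110 s.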
ClpP mod – qHTS Assay for Activators of ClpP; ATP-dependent Clp protease proteolytic subunit (Bacillus subtilis (strain 168)), P80244; Potency, µM (highest dose often 57.5 µM), for inactives: at the highest dose activity change, negative = active; AID 651965, 2013; purified B. subtilis ClpP, FRET peptide cleavage, 20 min; actives 1.9% (n = 340,000); active = well fitted falling curve with a large enough effect; inconclusive = small, poorly fitted or top-dose-only effect; inactive = no such curve, though single readings can be large or run the other way; further: potency means the concentration at half of the fitted maximal effect; the source files actives as falling curves though it sought activators and does not explain the sign; nearly all actives have a fitted effect of over 65% in size; many hits overshoot -100%
Target sequence (P80244 whole entry, looked up): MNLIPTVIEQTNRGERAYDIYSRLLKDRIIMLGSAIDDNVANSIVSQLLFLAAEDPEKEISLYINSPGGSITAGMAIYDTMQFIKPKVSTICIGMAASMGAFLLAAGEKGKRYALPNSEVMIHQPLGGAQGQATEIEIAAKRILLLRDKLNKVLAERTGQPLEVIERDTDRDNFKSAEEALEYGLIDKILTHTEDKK
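ClpP 10 microg/mL final, pH 8 Tris/KCl buffer with BSA, glycerol, Tween-20; compound pinned in; FRET-FV substrate; RT 20 min; Ex320/Em430; ΔFRET vs ADEP 5.8 microM, DMSO, no enzyme.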
TRPV1 PAM – human TRPV1 potentiation | Q8NER1 | TRPV1-expressing cells, Fluo-8 calcium influx, capsaicin EC20 potentiation; host cell line not named in the record; control for the full effect not named in the record | potentiation, % at 8.33 µM | actives 0.02% (n = 320,000) | AID 540277; active means potentiation above 80%; inconclusive means 30% to 80%; inactive means below 30%; further: 0% is about no effect
Target sequence (Q8NER1 whole entry, looked up): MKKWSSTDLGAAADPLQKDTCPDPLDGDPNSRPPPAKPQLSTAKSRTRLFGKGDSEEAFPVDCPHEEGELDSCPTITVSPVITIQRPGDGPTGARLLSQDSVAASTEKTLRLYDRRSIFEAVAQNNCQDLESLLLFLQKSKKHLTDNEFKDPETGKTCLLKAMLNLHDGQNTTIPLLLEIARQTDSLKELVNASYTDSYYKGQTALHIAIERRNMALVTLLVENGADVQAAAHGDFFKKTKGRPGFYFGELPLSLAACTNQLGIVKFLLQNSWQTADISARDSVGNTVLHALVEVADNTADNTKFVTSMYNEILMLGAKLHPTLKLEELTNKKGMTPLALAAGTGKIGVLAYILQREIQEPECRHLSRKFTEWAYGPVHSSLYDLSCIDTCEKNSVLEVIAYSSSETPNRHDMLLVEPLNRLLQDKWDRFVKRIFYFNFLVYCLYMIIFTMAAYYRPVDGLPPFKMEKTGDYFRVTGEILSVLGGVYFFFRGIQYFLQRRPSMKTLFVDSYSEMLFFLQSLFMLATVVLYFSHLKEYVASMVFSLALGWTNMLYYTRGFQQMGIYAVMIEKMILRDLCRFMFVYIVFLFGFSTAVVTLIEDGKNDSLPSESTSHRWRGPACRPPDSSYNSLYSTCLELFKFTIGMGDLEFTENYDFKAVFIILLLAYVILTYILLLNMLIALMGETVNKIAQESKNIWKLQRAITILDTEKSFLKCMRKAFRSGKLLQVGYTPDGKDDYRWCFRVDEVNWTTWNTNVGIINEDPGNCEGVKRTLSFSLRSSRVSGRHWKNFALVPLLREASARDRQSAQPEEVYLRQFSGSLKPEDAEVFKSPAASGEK
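Cells expressing TRPV1 were dye-loaded with Fluo-8 and read kinetically: 10 s baseline, 3 min after compound (agonist portion), then 2 min after EC20 capsaicin (allosteric enhancer portion). Calcium-bound dye fluorescence at 480/520 nm.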
Numbers without * were called inactive; ? = inconclusive; · = no result given; & = joins results of further samples; [ ] = dose if it differs, or a comment.

Sample of the layout, 2 compounds:
SMILES	Sfp inh	Menin-MLL FL inh	TRPML1 ag	PINK1 modulator	TRPML1 blocker	ClpP mod	TRPV1 PAM
CCOc1ccc(C(=O)NC(=S)Nc2ccc(N3CCOCC3)c(Cl)c2)cc1[N+](=O)[O-]	?	4.9	2.8	6.0%	-30	-26%	-3
CC[n+]1c(/C=C(\C)Nc2ccccc2)sc2ccccc21	56µM*	6.1	-0.4	8.2%	-12	1.7%	-6

The whole of this part, repeating the preview:
SMILES	Sfp inh	Menin-MLL FL inh	TRPML1 ag	PINK1 modulator	TRPML1 blocker	ClpP mod	TRPV1 PAM
CCOc1ccc(C(=O)NC(=S)Nc2ccc(N3CCOCC3)c(Cl)c2)cc1[N+](=O)[O-]	?	4.9	2.8	6.0%	-30	-26%	-3
CC[n+]1c(/C=C(\C)Nc2ccccc2)sc2ccccc21	56µM*	6.1	-0.4	8.2%	-12	1.7%	-6
COc1ccc(CN2C(=O)Cc3c2nc(N)c2c(N)nc(N4CCCCC4)c(C#N)c32)cc1	-10%	2.6	·	·	·	·	2
CC(=O)Nc1c(C)nn(-c2ccccc2)c1N1CCC(C(=O)Nc2ccccc2C(F)(F)F)CC1	·	·	0.1	0.3%	-8	0.1%	·
COc1ccc(N/N=C(\C#N)C(=N)N2CCCCC2)cc1	-9%	4.4	-0.7	0.3%	1	2.7%	-12
Cc1ccc(C(=O)OCC(=O)Nc2sccc2C(N)=O)cc1NC(=O)c1ccco1	-6%	-0.7	0.6	16%	-2	-12%	11
CC(/C=N/NC(=O)c1cccnc1)=C\c1ccco1	4%	4.6	0.5	·	-18	-8.0%	-2
c1ccc(Nc2nc(-c3cccnc3)nc3ccccc23)cc1	8%	12	·	0.2%	·	·	·
Cc1ccc(OCC(=O)Nc2ccc(CN3CCOCC3)cc2)cc1	7%	·	-0.6	0.5%	-13	-3.2%	-11
CC(CN1CCOCC1)OC(=O)C1COc2ccccc2O1 (configuration not stated)	-1%	-0.3	-0.7	0.3%	12	·	1
CCc1ccccc1NS(=O)(=O)c1c(C(=O)N2CCCCCC2)c(C)n(C)c1C	6%	5.1	0.0	-0.9%	2	-1.3%	5
COc1ccc(N=N/C(=C\O)C(=O)c2cccs2)cc1	-10%	7.1	-0.1	4.1%	-5	·	8
CNc1cncc(-c2ccc(F)c(F)c2)n1	·	·	-0.7	1.1%	·	5.5%	·
COC(=O)C(CCSC)NC(=O)c1cc2c(n(-c3ccc(Cl)cc3)c1=O)CCCC2=O (configuration not stated)	·	·	-0.9	2.7%	9	4.2%	·
COc1cccc(-c2nc(S(=O)(=O)c3ccccc3)c(N3CCCCC3)o2)c1	·	·	1.6	-0.3%	14	-16%	·
CCC(=O)N1CCc2cc(S(=O)(=O)CCC(=O)NCc3ccccc3OC)ccc21	11%	·	-0.9&0.2	0.6%&1.9%	?	2.1%&0.0%	9
O=C(c1cc(C2CC2)nc2ccccc12)N1N=C(C(F)F)CC1(O)C(F)F (configuration not stated)	4%	-0.9	-0.8	14%[38.3 µM]	-1	-7.4%	?
Cn1cc([N+](=O)[O-])c(C(=O)NC2CCCCCC2)n1	6%	·	0.4	0.5%	22	-1.4%	-19
CSc1ncnc2c1ncn2CCCNCc1ccccc1	·	·	1.0	-0.1%	31	-0.5%	·
O=S(=O)(c1ccc(Br)cc1)N1CCN(c2ccc3nnc(-c4ccccc4)n3n2)CC1	-5%	0.7	0.3	2.0%	25	-1.9%	2
COc1ccccc1C(=O)NCC(=O)N/N=C/c1cn[nH]c1-c1ccccc1	-4%	-2.7	0.3	2.9%	3	·	4
Cc1ccc(C(=O)N2CCCN(c3nc4cc5c(cc4cc3C#N)OCO5)CC2)cc1	-19%	8.4	2.7	5.8%	32	·	6
Cc1ccc2nc(-c3ccc(F)cc3)c(CC3CCCCC3)n2c1	·	·	0.2	1.4%	·	4.7%	·
COc1ccc(C(=O)C2CCCN(S(=O)(=O)N(C)C)C2)c(C)c1 (configuration not stated)	17%	-1.7	-0.5	-0.3%	2	·	1
CCC1=C(c2ccc(C)cc2)S(=O)(=O)N=C1N1CCC(C(=O)NCCc2ccc(Cl)cc2)CC1	·	·	0.1	-0.8%	-11	3.2%	·
CC(C1CC1)N(Cc1ccccc1)C(=S)Nc1ccccc1Cl (configuration not stated)	14%	0.4	-0.7	8.2%	-14	-0.7%	1
Cc1[nH]c2ccccc2c1C(=O)C(=O)NCCC1=CCCCC1	-4%	2.8	1.3	3.8%	0	-2.3%	-15
Cc1ccccc1N1C(=O)CC(N(O)c2ccccc2)C1=O (configuration not stated)	-5%	0.1	0.2	0.4%	-14	-0.6%	0
COc1ccc(-c2noc(CSc3ccc(C)cc3)n2)cc1	-3%	1.8	2.1	14%[38.3 µM]	-11	4.1%	?
COc1ccc(-c2ccc(C#N)c(SCC(=O)NCc3ccco3)n2)cc1OC	?	8.1	0.5	9.8%	6	·	21
COc1ccc(/C=C(/NC(=O)c2cccc([N+](=O)[O-])c2)C(=O)O)cc1OC	1%	-1.6	0.6	2.6%	6	·	2
COc1ccc(NC(=S)Nc2ccc(OCc3ccccc3)cc2)cc1OC	-1%	3.8	-0.8	7.5%	5	3.1%	-1
CCCC(=O)Nc1ccc(C(=O)NNC(=O)c2ccccc2Br)cc1	-28%	5.9	-0.5	5.7%[38.3 µM]	-16	-3.6%	15
COc1ccc(OC)c(CCNC(=O)C2CCN(c3ncnc4c3nc3n4CCCCC3)CC2)c1	0%	·	-0.3&-0.4	-0.9%&5.0%	4&23	1.4%&1.7%	3
Nc1n[nH]c(C2CC2)c1N=Nc1ccc(Cl)cc1	17%	-0.5	-1.2	0.5%	-7	-0.5%	-25
O=C(O)COc1ccc(NC(=O)c2ccco2)cc1	?	0.7	0.3	-1.2%[38.3 µM]	7	-0.3%	0
N#CC(=C1CCCC1)c1nc(-c2cc3ccccc3oc2=O)cs1	11%	4.5	-0.5	9.4%[38.3 µM]	9	?	?
COc1ccc(Cc2c(-c3cccc(Cl)c3)nc3ccc(Br)cn23)c(C)c1	·	·	0.4	10%	-1	-4.3%	·
Cc1ccc(-c2csc(NC(=O)C[n+]3cc(-c4ccccc4)n4c3CCC4)n2)cc1	-17%	-5.3	0.7	16%	10	·	23
O=C(CCc1ccccc1)Nc1ccc(NC(=O)c2ccco2)cc1	27%	4.3	0.0	-4.4%[38.3 µM]	10	-3.7%	-4
CCCCCCOc1ccc(OC(=O)c2cccnc2)cc1	14%	0.9	0.8	-3.8%[38.3 µM]	-2	-1.2%	3
CCOC(=O)N1CCN(CC(O)COc2ccc(CC)cc2)CC1 (configuration not stated)	8%	2.4	0.6	-2.7%	1	0.4%	4
Cc1ccc2cccc(NC(=O)c3ccc(-c4ccc(Cl)cc4Cl)o3)c2n1	·	·	-0.2	3.1%	-1	1.1%	·
CC(C)Oc1ccc(S(=O)(=O)N2CCCCC2)cc1NC(=O)C1CCC1	·	·	0.4	-0.1%	2	-0.6%	-15
CC(=O)Nc1nnc(CCS(=O)(=O)c2ccc(Cl)cc2)s1	1%	-1.3	-0.2	18%	18	·	6
CCc1cc(C(=O)N2CCN(c3ccccn3)CC2)sc1C	7%	·	-0.5	-0.1%	9	-4.9%	-11
O=C(c1nc2nc(-c3ccc(Cl)cc3)cc(C(F)(F)F)n2n1)N1CCOCC1	-6%	-1.6	0.3	3.8%	3	18µM*	-15
O=C(CN1CCN(CCC(=O)Nc2ccccc2F)CC1)Nc1ccc(F)cc1	6%	5.0	-0.8	0.5%	-16	-6.3%	-2
COc1ccc(CC(N)c2csc(Nc3nncc4ccccc34)n2)cc1 (configuration not stated)	·	·	2.3	-1.2%	·	-1.9%	·
CCOc1ccc(S(=O)(=O)N2CCN(C(=O)CN3C(=O)NC(C)(C)C3=O)CC2)cc1	·	·	0.6	3.4%	12	1.4%	-7

The results go on.
SMILES	Sfp inh	Menin-MLL FL inh	TRPML1 ag	PINK1 modulator	TRPML1 blocker	ClpP mod	TRPV1 PAM
Cc1ccc(/C=C/C(=O)O)cc1S(=O)(=O)N1CCCc2ccccc21	23%	1.5	·	0.5%	·	-1.6%	-18
COc1ccc(C(C(=O)NC2CCCCC2)N(C(=O)c2csnn2)C2CC2)cc1 (configuration not stated)	15%	7.8	-0.4	0.4%	16	·	-25
CCN(CC(=O)Nc1ccc([N+](=O)[O-])cc1OC)c1ccccc1	5%	-1.2	0.1	-1.6%[38.3 µM]	4	0.6%	-4
COc1cc(OC)cc(C(=O)N2CCN(C(=O)c3ccc(OC)c(OC)c3)CC2)c1	12%	-2.0	-0.7	-0.8%	4	-0.9%	0
Cc1ccccc1NS(=O)(=O)c1cc(C(=O)NCc2ccncc2)ccc1Cl	7%	1.4	-0.1	-1.8%	2	1.1%	-2
COc1cc(Br)c(-c2sc(Nc3ccccc3)n[n+]2-c2ccccc2)cc1OC	-9%	-3.6	0.3	0.4%	12	1.9%	-9
CCN(C(=O)CSc1ncccn1)c1c(N)n(Cc2ccccc2)c(=O)[nH]c1=O	·	·	0.3	-1.4%	-7	-2.0%	0
O=C(COc1ccccc1F)N1CCc2ccccc2C1	2%	-5.4	-1.3	-0.6%	33	0.1%	-7
O=C(CNc1ccccc1)N/N=C/c1c(O)ccc2ccccc12	3%	11	3.7	-1.5%	-4	-1.7%	4
CCN(CC)C(=O)c1ccc2c(c1)nnn2C	12%	·	-0.1	0.9%	20	1.7%	-4
Cc1c(CN2CCN(c3cccc(C(F)(F)F)c3)CC2)c(=O)n(-c2ccccc2)n1C	-14%	1.8	0.2	-1.5%	-25	-1.5%	12
Cc1ccc(Cl)c2c1NC(=O)C2=O	·	·	-0.6	2.9%	-15	0.3%	·
CN(C)S(=O)(=O)c1ccc(C(=O)NNC(=O)C23CC4CC(CC(C4)C2)C3)cc1	·	·	4.2	4.9%	8	1.1%	·
CCC[C@H]1CN(Cc2ccccc2)C(=O)[C@@H]1CC(=O)NC	·	·	-0.4	2.9%	2	-1.8%	·
COc1ccccc1NC(=O)c1sc2nc3n(c(=O)c2c1C)CCC3	16%	5.2	0.1	7.1%	-6	?	14
Cc1nn(-c2cccc(Cl)c2)c2c1C(c1cccnc1)C(C#N)=C(N)O2 (configuration not stated)	-4%	3.3	0.8	-2.5%	17	1.0%	9
CNC[C@H]1Oc2cc(Br)ccc2S(=O)(=O)N([C@@H](C)CO)C[C@@H]1C	·	·	0.4	0.6%	-3	2.7%	·

Hits appear at their usual frequency; about 4.4% have a hit in one of these screens.
